# Bioassay records deposited in PubChem BioAssay by National Center for Advancing Translational Sciences (NCATS).
# Vaccinia mCherry – inhibitors of vaccinia virus infection (mCherry reporter signal) | Vaccinia virus mCherry reporter infection, fluorescence; about a quarter of the inactives have no number | Potency, µM (highest dose often 36.5 µM), inactives show at the top dose activity change, negative = inhibition, most hits filed as inhibitors | hit rate 0.63% among 310,000; active = well fitted inhibition curve with a large enough effect; inconclusive = small, poorly fitted or top-dose-only effect; inactive = no such curve, though single readings can be large or run the other way; tested in A549 cells; note: nearly all actives have a fitted effect of over 35% in size; inactives centre near -10
# VACV Venus inh – inhibitors of vaccinia virus (Venus reporter) | Vaccinia virus Venus reporter expression, fluorescence | Potency, µM (doses to about 36.5 µM), for inactives: at the top dose activity change, negative = inhibition, most hits filed as inhibitors | hit rate 0.46% among 330,000; active means well fitted inhibition curve with a large enough effect; inconclusive means small, poorly fitted or top-dose-only effect; inactive means no such curve, though single readings can be large or run the other way; tested in A549 cells; note: nearly all actives have a fitted effect of over 30% in size; inactives centre near -10
# * = called active by the depositor; i = inactive; u = inconclusive; x = no result given; & = joins results of further samples; [ ] = another dose, or the depositor's remark. % is set by controls: 0 for no effect and ±100 for the full control effect; potency is the fitted concentration of half-maximal effect.
SMILES,Vaccinia mCherry,VACV Venus inh
C#CCNC(=O)C1=C[C@H](C(C)(C)C)C[C@H](OCCCCO)O1,-15%,-12%
O=C1C=CC(=Nc2cccc3c2C(=O)c2ccccc2-3)O1,-14%,-3%
CCOC(=O)c1cc2c(nc1NC(=S)Nc1ccccc1)CC(C)(C)OC2,-13%,-9%
CCn1c(C)cc(C(=O)COC(=O)c2ccccc2[N+](=O)[O-])c1C,-29%,-10%
CCOc1ccc(-c2cc3c(=O)n(CC(=O)NCc4ccc(OC)cc4)ccn3n2)cc1,-10%,-1%
CC(C)(CNC(=O)c1ccc(NS(=O)(=O)c2ccc(F)c(F)c2)cc1)N1CCOCC1,i,-9%
O=C(C1CCCN(S(=O)(=O)c2cnc[nH]2)C1)N1CC(=O)N(CCc2ccccc2)C(=O)C1 (stereo not drawn),17%,-2%
c1ccc2c(c1)CCOC2CNCCCN1CCCCC1 (stereo not drawn),-1%,-5%
Cc1n[nH]c(C)c1S(=O)(=O)N1CCN(C(=O)c2ccco2)CC1,x,-18%
Cc1ccc(C)c(N2CCN(C(=O)CCn3c(=O)c4cccn4c4cccnc43)CC2)c1,u,-17%
Cc1ccc(-c2c(C(=O)N/N=C/c3ccco3)nnn2-c2nonc2N)cc1,0%,-5%
COC(=O)c1cc(C)c(C)cc1NC1OC(CO)C(O)C1O (stereo not drawn),-14%,-12%
CCOC(=O)C1CCN(C2=NC(=O)/C(=C/c3ccc(Cl)cc3)S2)CC1,-21%,-17%
COc1ccc(Cn2ccc3nc(C)c(C(=O)NCc4ccc(F)cc4)cc3c2=O)cc1,-11%,-23%
COC(=O)c1ccccc1NC(=O)c1noc2c1CSc1ccccc1-2,-3%,-9%
Cc1ccc(C(=O)N/N=C/c2ccc(N3CCOCC3)cc2)c(C)c1,i,0%
Cc1ccc(NC(=S)Nc2cccc3cnccc23)cc1C,-24%,-5%
COc1ccc2c(c1)CCc1c(C(=O)N3CCCCCC3)noc1-2,-20%,-14%
CCc1nnc(NC(=O)c2ccc(S(=O)(=O)N3CCc4ccccc4C3)cc2)s1,-13%,-8%
Cc1ccc(CNC(=O)Nc2nnc([C@@H]3C[C@H](O)[C@@H](CO)O3)s2)cc1,9%,5%
O=C(COC(=O)c1cccc(OC(F)F)c1)NCC1CCCO1 (stereo not drawn),i,-9%
CC(=O)N1CCC(Nc2ccc(C)cc2)CC1,-22%,-5%
Cc1sc2nc(CN3CCOCC3)[nH]c(=O)c2c1-c1ccccc1,-1%,-8%
CCOC(=O)Cn1cc(/C=N/NC(=O)CC#N)c2ccccc21,i,-12%
CC(C)Cc1[nH]c(=O)c(C#N)c2c1CCC2,i,-11%
Cc1ccc(-n2ncc3c2CCCC3NC(=O)c2ccccc2N2CCOCC2)cc1C (stereo not drawn),-8%,-21%
CCOc1cccc(-c2cc(C(=O)N/N=C/c3ccc(OC)c(CN4CCOCC4)c3)c3ccccc3n2)c1,-22%,-7%
CCOc1ccc(NC(=O)c2nn(C)cc2Br)cc1,i,-6%
COc1ccc(-c2c(C)c3ccc(O)c(CN4CCCC(C)C4)c3oc2=O)cc1OC (stereo not drawn),-8%,-10%
Cc1cc(NC(=O)c2cc3n(n2)C(C(F)(F)F)CC(c2ccco2)N3)no1 (stereo not drawn),-17%,-20%
Cc1cc(-c2ccco2)n(CC(=O)NCc2ccccc2)n1,38%[activator],-6%
CC(C)c1c(C(=O)NCCN2CCOCC2)cnn1-c1nccc(-c2cccs2)n1,-23%,-13%
COc1ccc(N2CCN(C(=O)COC(=O)CCOc3ccccc3C)CC2)cc1,-5%,-2%
CCN(CC)C(=O)c1[nH]cnc1C(=O)N[C@@H](C)c1ccccc1,i,-12%
CCOc1ccc(NC(=O)c2nn(C)c3c2CS(=O)(=O)c2ccccc2-3)cc1,-8%,-14%
Nc1cc(=O)[nH]c(SCCOc2ccccc2)n1,-10%,-6%

# Reprinted from the part before: five entries, followed by the next part.
SMILES,Vaccinia mCherry,VACV Venus inh
CC(C)c1c(C(=O)NCCN2CCOCC2)cnn1-c1nccc(-c2cccs2)n1,-23%,-13%
COc1ccc(N2CCN(C(=O)COC(=O)CCOc3ccccc3C)CC2)cc1,-5%,-2%
CCN(CC)C(=O)c1[nH]cnc1C(=O)N[C@@H](C)c1ccccc1,i,-12%
CCOc1ccc(NC(=O)c2nn(C)c3c2CS(=O)(=O)c2ccccc2-3)cc1,-8%,-14%
Nc1cc(=O)[nH]c(SCCOc2ccccc2)n1,-10%,-6%
O=C(Nc1cccc([N+](=O)[O-])c1)c1ccc2c(c1)OCCO2,-12%,-13%
CCC1(C)Cc2c(c(=O)n(-c3ccccc3)c3ncnc(N)c23)CO1 (stereo not drawn),x,-23%
CCOC(=O)c1[nH]c(C)c(C(=O)NCc2ccccc2Cl)c1C,-3%,1%
CCOc1cccc(/C=N/N=C/c2cccc(OCC)c2O)c1O,-6%,-2%
O=C(CCc1nc(-c2cccs2)no1)Nc1cnc2ccccc2c1,0%,2%
CCC(C)C(NC(=O)C1CCC(C)CC1)C(=O)Nc1ccc(OC)cc1 (stereo not drawn),-14%,-3%
Cc1nc(-c2ccc(S(=O)(=O)N3CCN(CCc4ccccc4)CC3)s2)cs1,i,16%
C[N+](C)(C)CCC(=O)c1cccc2ccccc12,u,u
O=C1[C@H]2[C@@H](c3ccc(F)cc3)N3C(=O)N(c4ccc(Br)cc4)C(=O)[C@@]3(Cc3ccccc3)[C@H]2C(=O)N1C1CCCCC1,i,u
CCOc1ccc(NS(=O)(=O)c2cc(C(=O)N3CCC3)ccc2Cl)cc1,-15%,-9%
CC(=O)Nc1ccc(S(=O)(=O)NC2(C(F)(F)F)NC(=O)N(CCc3ccc(F)cc3)C2=O)cc1 (stereo not drawn),0%,-11%
Cc1ccc(N2C(=O)CC(c3ccccc3F)C3=C2COC3=O)cc1Cl (stereo not drawn),-14%,-7%
Oc1ccc(C(c2nnnn2C2CCCC2)N2CCc3ccccc3C2)cc1 (stereo not drawn),-26%,-9%
CC(CN1C(C)CCCC1C)OC(=O)c1ccccc1Br (stereo not drawn),i,-14%
Cn1c(=O)[nH]c(=O)c2c1nc(NCCc1ccccc1)n2CC(O)COc1ccccc1 (stereo not drawn),x,-13%
CCC(C(=O)NC1CCCC1)n1c2ccccc2c2nc(=O)cc(C)n21 (stereo not drawn),0%,-4%
COc1ccc([N+](=O)[O-])cc1NC(=O)C(C)N(C)Cc1ccc(Br)cc1 (stereo not drawn),-9%,-3%
CCOC(=O)c1c(C2CC2)csc1NC(=O)CSCc1c(C)noc1C,-21%,-10%
COc1ccc(CC(=O)NC2CC(C)(C)NC(C)(C)C2)cc1OC,-10%,-16%
CN1CCc2nc3sc(C(=O)Nc4cccc(C#N)c4)c(N)c3cc2C1,-18%,-4%
Cc1cc(Br)c(S(=O)(=O)NCc2ccncc2)cc1C,u,-21%
COc1ccc(NC(=O)CN2C(=O)NC(C)(c3ccc4c(c3)OCCO4)C2=O)cc1S(N)(=O)=O (stereo not drawn),i,-7%
Cc1ccc(NC(=O)Cn2c(=O)oc3ccccc32)c(C)c1,-14%,-5%
CCOc1ccc(CN(C)CC(=O)Nc2cccc(C)c2)cc1OC,-4%,-9%
C/C(=N\NC(=O)c1cc2ccccc2cc1O)c1ccccn1,u,-9%
CC(C)Cc1nnc(NC(=O)C2CCN(C(=O)c3ccc(Cl)cc3)CC2)s1,-3%,-22%
Cc1ccccc1SCC(=O)N1CCN(c2ccc(C(F)(F)F)cn2)CC1,-5%,-17%
N#C/C(=C/c1ccncc1)c1nc2ccccc2c(=O)[nH]1,i,-4%
O=C1c2ccccc2-c2n[nH]c(=O)c3ccc(N4CCCCC4)c1c23,u,u
COc1ccc(N2CC(C(=O)Nc3cccc(C)n3)CC2=O)cc1 (stereo not drawn),10%,-6%
CCn1c(SCC(=O)N/N=C/c2c[nH]c3ccccc23)nnc1-c1ccc(Cl)cc1,-15%,2%
COc1ccc(F)c(CN2CCC(CO)(Cc3cccc(C(F)(F)F)c3)CC2)c1,-12%,-6%
Cc1cc(Cl)ccc1OCCCC(=O)NO,i,-19%&-14%
CCc1ccc(-c2nc(CSCC(=O)N3CCN(c4ncccn4)CC3)c(C)o2)cc1,u,u
CCCCNc1nnc(CCn2nc(C)c(Br)c2C)s1,i,-14%
COc1cc(-c2cc(=O)c3c(O)c(OC)c(OC)c(OC)c3o2)cc(OC)c1OC,-3%&20%,-4%&-1%

# Part of the list above in order of heavy-atom count, smallest number first.
SMILES,Vaccinia mCherry,VACV Venus inh
Cc1cc(Cl)ccc1OCCCC(=O)NO,i,-19%&-14%
O=C1C=CC(=Nc2cccc3c2C(=O)c2ccccc2-3)O1,-14%,-3%
O=C(CCc1nc(-c2cccs2)no1)Nc1cnc2ccccc2c1,0%,2%
CCOc1ccc(NS(=O)(=O)c2cc(C(=O)N3CCC3)ccc2Cl)cc1,-15%,-9%
CC(C)Cc1nnc(NC(=O)C2CCN(C(=O)c3ccc(Cl)cc3)CC2)s1,-3%,-22%
Cc1nc(-c2ccc(S(=O)(=O)N3CCN(CCc4ccccc4)CC3)s2)cs1,i,16%
Cn1c(=O)[nH]c(=O)c2c1nc(NCCc1ccccc1)n2CC(O)COc1ccccc1 (stereo not drawn),x,-13%

# Carrying on:
SMILES,Vaccinia mCherry,VACV Venus inh
O=C(c1ccc(Br)cc1)N1CCN(c2ccccn2)CC1,-1%,-11%
CCN(CC)CCNC(=O)Cn1nc(Cc2ccccc2)c2ccccc2c1=O,-15%,-9%
COCCNC(=O)CSc1nnc(NC(=O)Nc2ccc(C)cc2)s1,1%[7.34 µM],-5%[7.34 µM]
CC1(C(=O)NS(=O)(=O)c2ccccc2)CCN1C(=O)Cc1cccc2ccccc12 (stereo not drawn),i,-4%
CCn1cc(C(=O)NCc2cccnc2)c2cc(OC)c(OC)cc2c1=O,-22%,-17%
CC1CCN(S(=O)(=O)c2ccc3[nH]ccc3c2)CC1,-14%,-13%
COc1ccc(S(=O)(=O)NC(=O)C2(C)CCN2C(=O)C2CC2)cc1 (stereo not drawn),i,10%
O=C(NCCCCNC(=O)c1ccco1)c1ccco1,-8%,-5%
CC(C)(C)c1ccc(C(=O)NNc2ncnc3c2cnn3-c2ccc(Cl)cc2)cc1,-19%,-8%
COc1ccccc1Nc1nnc(SCC(=O)N2CC(=O)Nc3ccccc32)s1,-23%,-24%
CCC1(OC(=O)CN)C(=O)OCc2c1cc1n(c2=O)Cc2cc3ccccc3nc2-1 (stereo not drawn),7.1µM*,u
COc1ccc(NC(=O)CSc2nc3ccsc3c(=O)n2Cc2ccccn2)c(OC)c1,-14%,-28%
O=C(O)CC(Cc1ccccc1)c1ccc2c(c1)OCO2 (stereo not drawn),-13%,-13%
Cc1nc(NC(=O)C(C)(C)C)sc1-c1nc(N)sc1-n1cc(-c2ccccc2)nn1,0%,5%
COc1cc2c(cc1O)C(Cc1ccc(O)cc1)N(C)CC2 (stereo not drawn),i,10%
C[C@H](CO)N1C[C@H](C)[C@H](CN(C)C(=O)Oc2ccccc2)OCc2cnnn2CCCC1=O,i,-11%
Oc1ccc2ccccc2c1CN1CCCC1,5%,7%
CC(=O)c1cc(-c2ccccc2)[nH]c1N1CCOCC1,-1%,-8%
CCOc1cc(C(=O)N2CCC(CC3CC(c4ccccc4)=NO3)(C(=O)NCc3ccc(OC)cc3)CC2)cc(OCC)c1OCC (stereo not drawn),i,u
Nc1nc(SCC(=O)Nc2cc(C(F)(F)F)ccc2Cl)[nH]c(=O)c1NC(=O)c1ccco1,-13%,-6%
COc1ccc(NC(=O)Cn2c(=O)n(Cc3ccco3)c(=O)c3sc4ccccc4c32)cc1Cl,-2%,-4%
CCOc1ccc(/C=C/c2nc(C#N)c(Nc3ccc(OC)cc3)o2)cc1,-2%,-6%
CCCOc1ccc(/C(O)=C2/C(=O)C(=O)N(CCCOC)C2c2cccnc2)cc1 (stereo not drawn),-1%,-1%
COc1ccc(C(=O)Nc2cccnc2)cc1,i,-4%
CC(C(=O)NCCCN1CCOCC1)n1cccc1C(=O)c1ccccc1 (stereo not drawn),x,-5%
O=C1CCCN1CCC(=O)N1CCCC(CO)(Cc2ccccc2)C1 (stereo not drawn),-14%,-8%
O=S(=O)(c1cccs1)N1CN(Cc2ccccc2)c2nc3ccccc3nc21,x,-12%
NNC(=S)NCCc1ccccc1,i,-9%
COc1ccc(-n2ccnc(NCCc3ccc(S(N)(=O)=O)cc3)c2=O)cc1Cl,i,-22%
Cc1ccccc1OCC(=O)Nc1nnc(SCc2cc(=O)n3cc(Cl)ccc3n2)s1,i,-6%
O=C(Nc1nccs1)c1ccc(COc2ccccc2)o1,-6%,-17%
CCN(CC)c1ncnc2c1cnn2C,39%[activator],51%[activator]
O=C(CN1CCOCC1)Nc1ccccc1C(=O)Nc1ccccc1,9%,4%
COc1ccc(S(=O)(=O)N2CCCCCC2)cc1C(=O)N1CCCCC1,-16%,-20%
CON1C(=O)C(=O)N(OC)C(C)(C)C1C (stereo not drawn),-15%,-10%
CC1=C(C(=O)N2CCN(c3cc(C)ccc3C)CC2)C2(CCC(C)CC2)OC1=O (stereo not drawn),-8%,-8%
COc1cccc(NC(=O)COC(=O)c2cc(=O)c3ccccc3o2)c1,-12%,-7%
COCCCNC(=O)c1cccc2c(-c3ccc(O)c(OC)c3)coc12,u,u
Cc1cc2nc(-c3ccccc3)c(CC3CCCCC3)n2c(C)c1Br,24%,-5%
C=C[C@]1(C)C[C@H]1[C@H](NP(=O)(c1ccccc1)c1ccccc1)c1ccccc1,-3%,-11%

# Rows are unselected; any-hit rate near 0.86%.
